ROCK2 inh = ROCK2 (human) kinase inhibition; purified ROCK2, Kinase-Glo ATP depletion luminescence; inhibition, % at 6 µM; 60,000 tested, 0.35% active;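 active = inhibition above the screen-wide mean inhibition plus 3 SD, cut at about 18% in these data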;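 note: plate controls were DMSO wells for no effect and Y-27632 control wells after no-enzyme background subtraction for full effect; many of its hits are not listed in these tables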
Cdc25B block = inhibitors of human Cdc25B phosphatase; recombinant Cdc25B, OMFP fluorescence Ex485/Em525; 65,000 tested, 0.1% active; inhibition, %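 (compounds tested at 10 µM final in the well)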; in the data active = inhibition above about 50%
JNK3 inh = inhibitors of human JNK3 kinase; 60,000 tested, 0.61% active; inhibition, % at 8 µM; purified JNK3 kinase activity, HTS; P53779; in the data active = inhibition above about 17%;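 note: 0% = DMSO and 100% = reference inhibitor; many of its hits are not listed in these tables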
MKP-1 inh = human dual specificity phosphatase 1 inhibition; inhibition, %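 (compounds tested at a single concentration somewhere between 10 and 100 µM)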; P28562; recombinant MKP-1, OMFP hydrolysis fluorescence; 65,000 tested, 0.15% active; AID 374;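 active = inhibition above about 50%, limit read from the data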;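 note: 0% = DMSO max control wells and 100% = wells with enzyme stopped by NaOH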
PKA inh = blocks human protein kinase A activity; 65,000 tested, 0.1% active; PKA Kemptide phosphorylation, Kinase-Glo ATP luminescence; inhibition, % at 6 µM;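 active = inhibition above the screen-wide mean inhibition plus 3 SD, cut at about 21% in these data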; note: many of its hits are not listed in these tables
Starred values were filed as active, the others as inactive; / = not tested or not shown. Some of the compounds tested; count on the stated rates, not on these rows.

Field names: A = ROCK2 inh; B = Cdc25B block; C = JNK3 inh; D = MKP-1 inh; E = PKA inh
> O=C(O)CCNC(=O)c1ccccc1
  A: 1 | B: -8 | C: 11 | D: -8 | E: -3

> COc1ccc([C@@H]2Sc3ccccc3N(CCN(C)C)C(=O)[C@@H]2OC(C)=O)cc1
  A: -6 | B: -22 | C: -2 | D: -7 | E: -6

> O=C(O)c1cc(NS(=O)(=O)c2cccc3ccccc23)ccc1O
  A: 4 | B: -6 | C: 0 | D: 12 | E: 3

> Cn1cnc2c1c(=O)[nH]c(=O)n2C
  A: 2 | B: -19 | C: 3 | D: -2 | E: -4

> O=C(Nc1cc(N2CCOCC2)ncn1)NC1(C(F)(F)F)Oc2ccc(Cl)cc2O1 (stereo unspecified)
  A: 2 | B: 11 | C: -1 | D: 3 | E: -4

> COCCNC(=O)NC1(C(F)(F)F)Oc2ccc(Cl)cc2O1 (stereo unspecified)
  A: / | B: 0 | C: / | D: 11 | E: 5

> CCCc1c(OCCCCc2nn[nH]n2)ccc(C(C)=O)c1O
  A: -1 | B: -21 | C: -4 | D: 2 | E: -1

> O=C(O)CCCn1nc(C(F)(F)F)c2c1CCCCC2
  A: -5 | B: 0 | C: 7 | D: 2 | E: 7

> COc1ccc2c(c1)c(CC(=O)OCC(=O)O)c(C)n2C(=O)c1ccc(Cl)cc1
  A: -6 | B: -7 | C: -4 | D: 13 | E: -2

> COc1c(N2CCNC(C)C2)c(F)cc2c(=O)c(C(=O)O)cn(C3CC3)c12 (stereo unspecified)
  A: -3 | B: -1 | C: 7 | D: -5 | E: -9

> O=C(CC(c1ccccc1)c1ccccc1)Nc1ncn[nH]1
  A: 4 | B: -22 | C: -2 | D: 0 | E: 9

> CN(C)Cc1cc(C(C)(C)C)c(O)c(C(C)(C)C)c1
  A: 3 | B: -3 | C: 5 | D: 5 | E: 8

Compound profiles, as listed above. Order of values: ROCK2 inh | Cdc25B block | JNK3 inh | MKP-1 inh | PKA inh
CN(C)Cc1cc(C(C)(C)C)c(O)c(C(C)(C)C)c1 as listed: 3 | -3 | 5 | 5 | 8
O=C(O)CCCn1nc(C(F)(F)F)c2c1CCCCC2 as listed: -5 | 0 | 7 | 2 | 7
O=C(CC(c1ccccc1)c1ccccc1)Nc1ncn[nH]1 as listed: 4 | -22 | -2 | 0 | 9
COc1ccc([C@@H]2Sc3ccccc3N(CCN(C)C)C(=O)[C@@H]2OC(C)=O)cc1 as listed: -6 | -22 | -2 | -7 | -6
